Screening data (PubChem BioAssay)
HTT prom inh – Primary qHTS for Identification of Small Molecule Inhibitors of Huntingtin Promoter Activity; Potency, µM (titrated, usually from 57.5 µM), without a hit: at the highest dose activity change, negative = inhibition, most hits filed as inhibitors; HEK293 HTT promoter firefly luciferase reporter (activity 0% = vehicle and -100% = no light), 24 h; 0.93% of 48,000 active; active = well fitted inhibition curve with a large enough effect; inconclusive = small, poorly fitted or top-dose-only effect; inactive = no such curve, though single readings can be large or run the other way; also: nearly all actives have a fitted effect of over 50% in size
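HEK293 Fluc reporter, 2,500 cells/well, 24 h pre-culture; cpds up to 57.5 uM final, 24 h 37 degrees C; Dual-Glo, 10 min RT; normalized vehicle = 0%, zero RLU = -100%.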
PMP22 txn prim – Cell-based coincidence reporter assay to measure PMP22 gene transcription in S16 Pmp22-F2sN cells - Primary screen; S16 Pmp22-F2sN Schwann cells (luciferase reporters placed in the Pmp22 gene), FLuc/NLuc coincidence luminescence, 24 h; Potency, µM (top dose mostly 57.5 µM), inactives show at the top dose activity change, negative = inhibition, hits mostly inhibitors; 2% of 43,000 active; active = clear falling dose curves in both reporters; inconclusive = both reporters move, but less clearly or upward; inactive = either reporter flat; the % is the NLuc reporter signal; also: % is scaled to controls: 0 for no effect and ±100 for the full control effect; some results filed as inactive show a strong effect at the top dose
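qHTS, 1536-well. Cells seeded, compounds added by pin tool, 24 h 37C. Nano-Glo reagent 1 (lysis/FLuc), 10 min RT, read; Stop&Glo, 10 min RT, read NLuc.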
* marks the source's active call; other numbers are inactive results; ? = inconclusive; / = not tested or not shown; & = joins results of further samples; [ ] = remark or other dose. Potency is read from the fitted curve at half-maximal effect.

canonical_smiles | HTT prom inh | PMP22 txn prim
COc1ccccc1-n1c(=O)c2c3c(sc2n(C)c1=O)CN(C(C)=O)CC3 | -2% | -6%
CCOc1ccc(CCNC(=O)c2cc3sccc3n2CC)cc1OCC | ? | ?
COC(=O)c1sc2cccc(F)c2c1S(=O)(=O)Nc1cc(C)c(Cl)cc1OC | -20% | -18%
Cc1ccc(C(=O)Nc2ccc(F)cc2)cc1S(=O)(=O)N1CCCCCC1 | ? | ?
CN(C)CCC=C1c2ccccc2CCc2ccccc21 | -7% | /
CCS(=O)(=O)N1CCc2cc(C(=O)NCCc3ccc(OC)cc3)ccc21 | -19% | -11%
O=C(CSc1nc2c([nH]c3ccccc32)c(=O)n1-c1ccc(Cl)cc1)N1CCCC1 | -3% | 13%
O=C(NC1CCCC1)c1ccc2c(=O)n(Cc3ccccc3)c(SCc3cccc([N+](=O)[O-])c3)nc2c1 | -2% | -10%
COc1cccc2c1C(=O)c1c(O)c3c(c(O)c1C2=O)C[C@@](O)(C(=O)CO)C[C@@H]3O[C@H]1C[C@H](N)[C@H](OC2CCCCO2)[C@H](C)O1 (some centres not stated) | ? | /
Cc1cc(C)cc(Nc2nc3cc(Cl)c(Cl)cc3nc2-n2nc(C)cc2C)c1 | -13% | 11%
CCCCC(=O)Nc1ccc(C(=O)OCc2cc(=O)n3nc(C4CC4)sc3n2)cc1 | -19% | -8%
CCc1ccccc1NC(=O)CSc1nc2n[nH]c(C)c2c(=N)n1-c1cccc(C)c1 | ? | ?
CCN(CC)c1ccc2cc(-c3nc(-c4cc(OC)c(OC)c(OC)c4)no3)c(=O)oc2c1 | 3% | -2%
Cc1cccc(OCC(=O)Nc2ccc(Cl)c(-c3nc4ncccc4o3)c2)c1C | -10% | ?
CCOc1c(Br)cc(C2CC(=O)Nc3cc4c(cc32)OCO4)cc1OC (configuration not stated) | ? | ?

Taken from the results shown (four entries):
canonical_smiles | HTT prom inh | PMP22 txn prim
COc1ccccc1-n1c(=O)c2c3c(sc2n(C)c1=O)CN(C(C)=O)CC3 | -2% | -6%
CCOc1ccc(CCNC(=O)c2cc3sccc3n2CC)cc1OCC | ? | ?
COC(=O)c1sc2cccc(F)c2c1S(=O)(=O)Nc1cc(C)c(Cl)cc1OC | -20% | -18%
Cc1ccc(C(=O)Nc2ccc(F)cc2)cc1S(=O)(=O)N1CCCCCC1 | ? | ?

(cont.)
canonical_smiles | HTT prom inh | PMP22 txn prim
Fc1ccc(-c2nc(Nc3ccc(F)c(Cl)c3)nc3c2COc2ccccc2-3)cc1 | -11% | -14%
O=C(CSc1nc2c(c(=O)[nH]1)CCC2)Nc1ccccc1F | 1% | -2%
CCSc1nnc2c(n1)OC(c1ccc(C)cc1)N(C(C)=O)c1ccccc1-2 (configuration not stated) | -31% | ?
Cc1nc2nc(C)c(NS(=O)(=O)c3ccc(CC(C)C)cc3)c(=O)n2[nH]1 | -16% | -1%
Cc1ccc(NC(=O)CSc2nc3c(sc4ccccc43)c(=O)n2CCCC(=O)NC2CCCC2)cc1C | -15% | 1%
O=S(=O)(NCc1ccc(Cl)cc1)c1ccc(N2CCCCS2(=O)=O)cc1 | ? | ?
Cc1cc(OCC(=O)Nc2c(C(=O)c3ccccc3)oc3ccccc23)cc(C)c1Cl | 8% | -10%
COc1ccccc1CNC(=O)CCC1N=C2c3ccccc3N=C(SCc3ccc(C)cc3)N2C1=O (configuration not stated) | 18% | -120%
CC(=O)N1CCCc2cc(S(=O)(=O)N3CCCC(C(=O)N4CCN(c5ccccc5F)CC4)C3)ccc21 (configuration not stated) | 10µM* | ?
COc1cc(NC(=O)C(CC(C)C)NS(=O)(=O)c2ccc3c(c2)oc(=O)n3C)c(C(=O)O)cc1OC (configuration not stated) | -2% | -12%
CCOC(=O)c1ccccc1NC(=O)N1CCCN(S(=O)(=O)c2ccc3c(ccn3CC)c2)CC1 | ? | ?
Cc1cc(C)cc(NC(=O)C(CC(C)C)NC(=O)C2CCCCC2)c1 (configuration not stated) | -1% | -13%
CCOc1ccccc1C(=O)Nc1ccc(S(=O)(=O)Nc2nc(C)cc(C)n2)cc1 | 2% | -23%
N#Cc1ccccc1Cn1c(SCC(=O)Nc2ccc(F)cc2)nc2ccccc21 | -34% | ?
CCOc1ccc2nc(N(Cc3cccnc3)C(=O)C3CCCCC3)sc2c1 | -29% | ?

Ordered by molecular weight (largest number first): part of the list above
canonical_smiles | HTT prom inh | PMP22 txn prim
CCOC(=O)c1ccccc1NC(=O)N1CCCN(S(=O)(=O)c2ccc3c(ccn3CC)c2)CC1 | ? | ?
CCCCC(=O)Nc1ccc(C(=O)OCc2cc(=O)n3nc(C4CC4)sc3n2)cc1 | -19% | -8%
Cc1nc2nc(C)c(NS(=O)(=O)c3ccc(CC(C)C)cc3)c(=O)n2[nH]1 | -16% | -1%

Following part
canonical_smiles | HTT prom inh | PMP22 txn prim
CCC(=O)N1CCc2cc(CNS(=O)(=O)c3cccs3)ccc21 | 34%[activator] | ?
Cc1ccc(S(=O)(=O)c2nc(S(=O)(=O)c3ccc(C)cc3)c(NC(C)C)s2)cc1 | -16% | -18%
CCOc1ccc(NC(=O)CC2C(=O)N(c3ccccc3)C(=O)N2CCc2ccc(OC)cc2)cc1 (configuration not stated) | ? | 1%
CCc1cccc(CC)c1NC(=O)Cn1c(=O)c(-c2cc(C)ccc2NC(C)=O)nc2ccccc21 | -3% | -5%
O=C(Cn1c(=O)c2cccn2c2ccccc21)Nc1cc(F)ccc1F | -6% | -1%
CCOC(=O)c1ccccc1NC(=O)C(=O)Nc1ccc2nc3n(c(=O)c2c1)CCCCC3 | -21% | -15%
CS(=O)(=O)c1ccc([C@@H](O)[C@@H](CF)NC(=O)C(Cl)Cl)cc1 | -11% | /
COc1cccc(CNC(=O)c2cc3c(s2)-c2ccccc2OC3)c1 | -5% | -38%
CCOc1ccc(NC(=O)Cn2nc(Cc3cccnc3)c3ccccc3c2=O)cc1 | 6% | -13%
COc1cccc(-c2noc(COc3cccc(C)c3C)n2)c1 | 23% | 2%
CCC(=O)N1c2ccccc2CC1C(=O)NCc1ccc(N(C)C)cc1 (configuration not stated) | -14% | ?
CCOCCCNC(=O)C(c1ccc(Cl)cc1)N(Cc1ccc2c(c1)OCO2)C(=O)c1ccccc1O (configuration not stated) | -27% | -1%
CCOc1ccc(NC(=O)C(=O)NCC(c2cccnc2)N2CCc3ccccc32)cc1 (configuration not stated) | ? | ?
CCCOc1ccc(C2c3c(oc4ccc(F)cc4c3=O)C(=O)N2CCc2ccc(OC)cc2)cc1 (configuration not stated) | -2% | -5%
CC1CCC(C(=O)NC(C(=O)OCC(=O)c2ccccc2)C(C)C)CC1 (configuration not stated) | ? | -40%
COc1ccc(C2C(C(=O)Nc3ccc(C)cc3C)=C(C)Nc3nc4ccccc4n32)c(OC)c1 (configuration not stated) | -19% | -73%
Cc1cc(-c2ccccc2)n2nc(-c3ccccc3)cc2n1 | -16% | 24%
CC1=C(C(=O)Nc2ccc(C)cc2C)C(c2ccc(C(=O)O)cc2)n2nc(SCc3ccccc3)nc2N1 (configuration not stated) | -2% | -3%
COc1cccc(NC(=O)c2oc3ccccc3c2NC(=O)c2ccc(OC(C)C)cc2)c1 | 15% | 9%
COc1cc(C(=O)Nc2ccc3oc(-c4ccc(C)c(Br)c4)nc3c2)cc(OC)c1OC | 2% | -16%
Cc1ccc(C)c(S(=O)(=O)c2nnn3c2nc(Nc2ccc(F)c(Cl)c2)c2sccc23)c1 | 5% | ?
CCOc1ccccc1CNC(=O)CCc1c(C)nn(-c2ccc(N3CCOCC3)nn2)c1C | -29% | ?
COc1cccc(CNC(=O)CCCCCn2c(=O)[nH]c3cc(OC)c(OC)cc3c2=O)c1 | -9% | 2%
COc1ccc(Cl)cc1NC(=O)CCn1c(=O)c2cccn2c2ccccc21 | -14% | -6%
Cc1ccc2c(c1)-c1nc(-c3ccccc3)cc(-c3ccccc3)c1CO2 | -7% | 17%
CCOc1ccc(CNC(=O)Cn2ccc3cc(S(=O)(=O)N4CCCCC4)ccc32)cc1 | -20% | -18%
C1Cc2[nH]nc(-c3nn[nH]n3)c2C1 | 1% | /
Cc1nnc(SCc2ccccc2)c2cc3sccc3n12 | 37%[activator] | -22%
CCOC(=O)C1CCCN(C(=O)c2ccc3c(c2)sc2nc(-c4ccc(CC)cc4)cn23)C1 (configuration not stated) | ? | -68%
O=C(NCCc1ccccc1)c1ccc(CSc2nc3ccncc3n2Cc2ccccc2F)cc1 | 7% | -56%

Three entries picked at random from those above:
canonical_smiles | HTT prom inh | PMP22 txn prim
O=C(CSc1nc2c(c(=O)[nH]1)CCC2)Nc1ccccc1F | 1% | -2%
CCOc1ccc(CCNC(=O)c2cc3sccc3n2CC)cc1OCC | ? | ?
CCC(=O)N1CCc2cc(CNS(=O)(=O)c3cccs3)ccc21 | 34%[activator] | ?

Additional structures follow.
canonical_smiles | HTT prom inh | PMP22 txn prim
CCSc1oc(-c2ccco2)nc1S(=O)(=O)c1ccc(Br)cc1 | -29% | ?
CCCCC/C=C\C/C=C\CCCCCCCC(=O)NC(C)c1ccccc1 (configuration not stated) | -17% | /
Cc1ccc(C)c(NC(=O)Nc2csc3c2CCCC3)c1 | -20% | ?
CCc1cccc(NC(=O)C2CCCN(c3ncnc4onc(-c5ccc(F)cc5)c34)C2)c1 (configuration not stated) | ? | ?
COc1ccccc1OCC(=O)Nc1nnc2n1CCS2 | 14% | ?
CCc1cccc(NC(=O)CN2C=NS(=O)(=O)c3ccccc32)c1 | -22% | 1%
COc1ccc(NC(=O)CSc2nnc(NC(=O)Nc3ccccc3)s2)cc1OC | 25% | -85%
O=C(Nc1ccc2nc(SCC(=O)N3CCCc4ccccc43)sc2c1)c1ccc(Cl)cc1 | ? | -13%
CCn1cc(C(=O)NCCc2ccccc2)c(=O)c2cc(S(=O)(=O)N3CCCCCC3)ccc21 | -18% | ?
Cc1cnc2c(c1SCC(=O)NCc1ccc(F)cc1)c(=O)n(C)c(=O)n2C | -11% | -8%
O=C(NCc1cccc(F)c1)c1ccc(CN2CC(=O)N3CCCCC3C2=O)cc1 (configuration not stated) | -20% | -21%
CC(=O)c1ccc(N2CCN(C(=O)CCC(=O)Nc3ccc4nc(N5CCCCC5)cc(C)c4c3)CC2)cc1 | ? | -23%
Cc1ccc(CCNC(=O)C2CCN(S(=O)(=O)c3ccc4c(ccn4C)c3)CC2)cc1 | -11% | -25%
COc1ccc2c(c1)c(=O)c(S(=O)(=O)c1ccccc1)cn2CC(=O)Nc1ccc2c(c1)OCO2 | -12% | -4%
CCOc1ccc(CN2C(=O)c3ccccc3Sc3ccc(C(=O)N4CCN(C)CC4)cc32)cc1 | -21% | ?
CC(C)(C)c1ccc(OCc2nc3ccccc3n2CCOc2ccccc2)cc1 | -14% | -17%
CCn1cc(CCC(=O)NCc2ccccc2OC)c2ccccc21 | -25% | -1%
O=C(O)CCn1c2c(c3ccccc31)C[C@H](NS(=O)(=O)c1ccc(F)cc1)CC2 | -4%&-5% | /
O=c1c(NCc2ccccc2Cl)nccn1-c1ccccc1 | 5% | ?
Fc1cccc(-c2nnn3c2nc(NCCc2ccccc2)c2ccccc23)c1 | -6% | -1%
Cc1ccc2c(c1)c1c(c(=O)n(-c3cccc(Cl)c3)c(=O)n1CC(=O)NCCC1=CCCCC1)n2C | -6% | 0%
CC(C)(C)c1ccc(-c2nc3cc(NC(=O)c4cccc(Br)c4)ccc3o2)cc1 | -7% | -31%
CCc1cccc(NC(=O)CSc2nc3ccsc3c(=O)n2CC)c1 | ? | ?
CCOc1ccc(OCC(=O)Nc2nnc3n2CCS3)cc1 | 3% | -11%
CCCCn1cc(S(=O)(=O)c2ccc(Cl)cc2)c(=O)c2cc(F)c(N3CCCCC3)cc21 | 13% | 13%
CC(C)(C)COc1ccc(-n2cc(C(=O)O)cn2)cc1C#N | ? | /
COc1ccc(CCNC(=O)c2cc(=O)[nH]c3ccc(S(=O)(=O)N4CCCCC4C)cc23)cc1OC (configuration not stated) | -31% | ?
COC(=O)c1ccc2c(=O)n(CCCCCC(=O)N3CCN(c4ccc(Cl)cc4)CC3)c(=O)[nH]c2c1 | 1% | -10%
Cc1ccccc1Nc1sc(C(=O)c2ccccc2)c(N)c1S(C)(=O)=O | -27% | -44%
CC1CCCCN1CCCNC(=O)c1cc(Sc2cccc(Cl)c2)nc2ccccc12 (configuration not stated) | -27% | ?
CCCCCCOC(=O)N=C(N)c1ccc(NCc2nc3cc(C(=O)N(CCC(=O)OCC)c4ccccn4)ccc3n2C)cc1 | -19% | /
CC1CCN(S(=O)(=O)c2ccc3c(c2)N(CC(=O)Nc2ccc(F)c(Cl)c2)C(=O)CO3)CC1 | ? | -10%
Cc1ccc2oc(C(=O)N(Cc3sccc3C)C3CCS(=O)(=O)C3)c(C)c2c1 (configuration not stated) | ? | -21%
Cc1ccc2c(c1)N(C(=O)N1CCC(C(=O)NCc3ccccc3C)CC1)CC(C)O2 (configuration not stated) | ? | -110%

Some of the compounds tested; count on the stated rates, not on these rows.
